RE007 growth inh: less growth of the S. pombe RE007 Vpr strain | S. pombe RE007 Vpr strain, BacTiter-Glo ATP luminescence, 24 h; control for the full effect not named in the record | Potency, µM (doses to about 92.2 µM), inactives show at the top dose activity change, negative = less growth | actives 0.21% (n = 360,000) | AID 651644; active = well fitted falling curve with a large enough effect; inconclusive = small, poorly fitted or top-dose-only effect; inactive = no such curve, though single readings can be large or run the other way;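 note: % is set by controls: 0 for no effect and ±100 for the full control effect; nearly all actives have a fitted effect of over 50% in size; the assay follows cell death caused by Vpr and the record does not say whether a fall means rescue or toxicity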
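Fission yeast RE007 carrying one integrated HIV-1 vpr copy, seeded at OD 0.01 in PMG+AL medium with 23 nL pinned compound. Grown 24 h at 30 degrees; viability read by BacTiter-Glo luminescence after 5 min.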
SARS PLP yeast: inhibitors of SARS-CoV papain-like protease in yeast; S. cerevisiae expressing SARS-CoV PLpro, growth rescue; control for the full effect not named in the record; Potency, µM (series often up to 32.9 µM), inactives show at the top dose activity, positive = growth rescue; actives 0.19% (n = 330,000); active means well fitted rising curve with a large enough effect; inconclusive means small, poorly fitted or top-dose-only effect; inactive means no such curve, though single readings can be large or run the other way; note: 0% is about no effect; nearly all actives have a fitted effect of over 55% in size; growth read by luminescence after 48 h
2A StopGo: FMDV 2A StopGo reporter, luciferase signal; human cells with a luciferase reporter of 2A StopGo recoding; control for the full effect not named in the record; Potency, µM (series often up to 57.9 µM), for the others: top-dose signal change, negative = less light; actives 1.2% (n = 410,000); AID 1159524; active = well fitted falling curve with a large enough effect; inconclusive = small, poorly fitted or top-dose-only effect; inactive = no such curve, though single readings can be large or run the other way; tested in HEK293T cells; note: % is set by controls: 0 for no effect and ±100 for the full control effect; nearly all actives have a fitted effect of over 45% in size; luciferase light after 4 h
An asterisk follows results filed as active; ? = inconclusive; [ ] = another dose, or the depositor's remark. Potency is the fitted concentration of half-maximal effect. The list is partial. The share of hits here may be higher or lower than overall.

SMILES | RE007 growth inh | SARS PLP yeast | 2A StopGo
Cc1ccc(CC(=O)Nc2cccnc2)cc1 | 5% | 1% | 6%
CCN(CC)c1ccc(/C=N/NC(=O)Nc2ccccc2)cc1 | 17% | -14% | 51%[activator]
C[C@@H]1CN([C@H](C)CO)C(=O)c2cc(NC(=O)Nc3ccc(C(F)(F)F)cc3)ccc2O[C@H]1CN(C)S(=O)(=O)c1ccc(Cl)cc1 | 7% | 4% | -21%
CC1CN(C2=Nc3cccc4cccc2c34)CC(C)O1 (configuration not stated) | -4% | 4% | -2%
C=CC[C@H](CC(=O)OC(C)(C)C)C(=O)OC[C@H]1CCCN1C(=O)[C@H](CC=C)CC(=O)N(CCO)Cc1ccccc1 | 6% | 2% | -20%
C[C@@H]1CN([C@@H](C)CO)C(=O)c2cc(NC(=O)CCN3CCOCC3)ccc2O[C@@H]1CN(C)C(=O)Nc1ccccc1 | 32% | -49% | -2%
N#Cc1c2ccc(OCC(N)=O)cc2n2ccccc12 | 11% | 4% | -8%
CNC1=C([N+](=O)[O-])CC([N+](=O)[O-])=C(N2CCNCC2)N1C | -22% | 5% | -3%
Cn1nnnc1SCC(=O)NCc1ccc2c(c1)OCO2 | -5% | 2% | 15%
Cc1ccc(NC(=O)CN(C)CC(=O)Nc2ccc(F)c(Cl)c2)cc1 | -1% | -3% | -20%
CCN(Cc1ccc(OC)c(F)c1)C(C)C(=O)Nc1ccc(S(=O)(=O)N2CCCC2)cc1 (configuration not stated) | -8% | 1% | -25%
CC1(NC(=O)CCNC(=O)c2ccc(C(C)(C)C)cc2)CCS(=O)(=O)C1 (configuration not stated) | 3% | -5% | -10%
CCCNC(=O)C(CC)NC(=O)c1cccc([N+](=O)[O-])c1 (configuration not stated) | 0% | 5% | -7%
Nc1ccn(CC(=O)NCc2ccccc2)c(=O)n1 | 2% | 2% | -4%
CN(C(=O)CSc1nnc(C2CC2)n1-c1ccccc1)C1CCS(=O)(=O)C1 (configuration not stated) | 11% | 7% | -9%
O=S(=O)(c1ccccc1)[C@@]1(c2ccccc2)C[C@@H]2ON=C(c3cccc(-c4ccccc4)c3)[C@@H]2C1 | 5% | 0% | -22%
Cc1cc(C)c(C(=O)CN2C(=O)C(=O)N(C3CCCC3)C2=O)cc1C | -18% | 11% | -6%
Cc1ccc(S(=O)(=O)N(C)C)cc1NC(=O)COC(=O)C1=COCCO1 | 9% | -1% | -12%
COC(=O)c1ccc(NC(=S)N(Cc2cccnc2)Cc2ccco2)cc1 | -9% | -7% | -13%
Cc1ccc(NC(=O)CCNC(=O)Nc2ccccc2)cc1S(=O)(=O)N(C)C | -10% | 3% | -23%
COc1ccc(NC(=O)CN2C(=O)NC3(CCCC3)C2=O)cc1S(=O)(=O)N1CCCCC1 | -5% | 5%[6.58 µM] | -13%
COc1ccc(CNC(=O)c2cc3c(=O)[nH]c4ccccc4c3n2C)cc1 | -5% | 9% | -16%
CC(C)(C)OC(=O)C[C@H]1C/C=C\C[C@H](CC(=O)N(CCO)Cc2ccccc2)C(=O)N2CCC[C@H]2COC1=O | 2% | 3% | -25%
Fc1ccccc1-c1cc2ncccc2cn1 | -7% | 0% | 81%[activator]
Nc1c(N(Cc2ccco2)C(=O)c2cccc(F)c2)c(=O)[nH]c(=O)n1Cc1ccccc1 | -8% | 4% | -2%
Cc1cnc(C(=O)OCC(=O)NCc2cccc(Cl)c2)cn1 | -2% | -6% | -9%
COc1cc2sc(-c3ccccc3OC)c(-c3ccc(O)cc3)c2cc1OC | 6% | -10% | -18%
Cc1cc(C(=O)OCC(=O)N(C)c2c(N)n(Cc3ccccc3)c(=O)[nH]c2=O)c(C)n1-c1ccccc1 | -13% | -5% | -14%
C[C@@H]1CN([C@@H](C)CO)C(=O)c2cccc(NC(=O)C3CCCCC3)c2O[C@@H]1CN(C)C(=O)NC1CCCCC1 | 5% | 1% | -19%
N#C/C(=C\c1ccc(O)c([N+](=O)[O-])c1)C(=O)NCc1ccccc1 | -5% | -2% | -8%

Reformatted: 4 of the compounds above.
Cc1ccc(NC(=O)CCNC(=O)Nc2ccccc2)cc1S(=O)(=O)N(C)C
  RE007 growth inh = -10%	SARS PLP yeast = 3%	2A StopGo = -23%

COc1ccc(NC(=O)CN2C(=O)NC3(CCCC3)C2=O)cc1S(=O)(=O)N1CCCCC1
  RE007 growth inh = -5%	SARS PLP yeast = 5%[6.58 µM]	2A StopGo = -13%

COc1ccc(CNC(=O)c2cc3c(=O)[nH]c4ccccc4c3n2C)cc1
  RE007 growth inh = -5%	SARS PLP yeast = 9%	2A StopGo = -16%

CC(C)(C)OC(=O)C[C@H]1C/C=C\C[C@H](CC(=O)N(CCO)Cc2ccccc2)C(=O)N2CCC[C@H]2COC1=O
  RE007 growth inh = 2%	SARS PLP yeast = 3%	2A StopGo = -25%

New compounds follow:
SMILES | RE007 growth inh | SARS PLP yeast | 2A StopGo
CCOc1ncccc1C(=O)Nc1cc2c(cc1Br)OCCO2 | 18% | 1% | 27%
CSc1ccc(CSCC(=O)N2CCN(S(=O)(=O)c3ccc(C)cc3C)CC2)cc1 | 5% | 9% | ?
CC(=O)Nc1ccccc1OCC(=O)NC1CCCCC1C (configuration not stated) | 1% | 13% | ?
Cc1ccc(C2=NNC(c3cccc(F)c3)S2)cc1 (configuration not stated) | 0% | -1% | -70%
CC(=O)c1c(C)[nH]c(C2=NNC(=NCc3ccccc3)SC2)c1C | 8% | -2% | 26%
CN(C)C(=O)CCc1ccc2c3c([nH]c2c1)[C@]1(C)[C@@H](C(=O)N2CCOCC2)C[C@H](CC(=O)NCc2ccco2)C(=O)N1CC3 | -23% | -2% | -13%
CC1CCC(NC(=O)COC(=O)CNC(=O)c2ccc3ccccc3c2)CC1 (configuration not stated) | -5% | -1% | 7%
CN(CC(=O)Nc1ccccc1Br)C(=O)c1ccccc1Cc1ccccc1 | -2% | 1% | -18%
O=C(c1ccc(-c2ccccc2Cl)o1)N1CCCC(C(F)(F)F)C1 (configuration not stated) | 3% | 4% | 54%[activator]
CCN(C(=O)COC(=O)CNC(=O)c1ccc(Cl)cc1Cl)c1c(N)n(Cc2ccccc2)c(=O)[nH]c1=O | -11% | 1% | 18%
Fc1ccc(-c2cc(C(F)(F)F)nc(-n3cc(Cl)cn3)n2)cc1 | -7% | 5% | 0%
CC1CCN(C(=O)c2ccc(S(=O)(=O)N3CCCCCC3)cc2)CC1 | -9% | 6% | -11%
COc1ccc(CC(=O)Nc2nc(C)cs2)cc1S(=O)(=O)N1CCOCC1 | 0% | 2% | 15%
CCc1ccc2c(CC(=O)Nc3cccc(S(=O)(=O)N4CCOCC4)c3)coc2c1 | 2% | 0% | 19%
Cc1nccc2c1[nH]c1ccc(Br)cc12 | -19% | 3% | -20%
COc1ccc([C@H]2CC(=O)C=C(c3ccc(F)cc3OCc3ccccc3)C2)cc1 | -15% | 5% | ?
COc1ccccc1CCN=C(N)NS(=O)(=O)c1cccs1 | -12% | -1% | 12%
CC(=O)Nc1ccc(NC(=O)CSc2nnc(C3CC3)n2-c2ccccc2)cc1 | 14% | 1% | 12%
CCN(C[C@H]1N[C@@](CC)(C(=O)OC)[C@H]2C(=O)N(C)C(=O)[C@@H]12)C(=O)NC(C)C | -18% | -2% | 4%
COc1ccc(S(=O)(=O)N2CCc3ccccc32)cc1C(=O)Nc1ccc(C(N)=O)cc1 | 2% | 2% | ?
COC(=O)N[C@@H]1C[C@H]2[C@@H]3CC[C@H]4C[C@@H](OC)CC[C@]4(C)[C@H]3CC[C@]12C | 21% | -29% | ?
COc1ccc(C(=O)NNC(=O)CSc2nc3c([nH]2)c(=O)n(C)c(=O)n3C)cc1 | -3% | 1% | -6%
COc1ccc(/C=C/C(=O)OCC(=O)NC2CCCC2)c(OC)c1 | 5% | 8% | -10%
Cc1cccc(NC(=O)C(C)Sc2nnc(-c3cccnc3)o2)c1 (configuration not stated) | 41% | 7% | -3%
COC(=O)C1=C(c2ccc(F)cc2OCc2ccccc2)C[C@@H]2CC[C@H]1N2C(=O)NCCOc1ccccc1Cl | 2% | 5% | -23%
O=C1CCC/C=C\C[C@@H](CC(=O)N(CCO)Cc2ccccc2)C(=O)N2CCC[C@H]2CO1 | -15% | 4% | -4%
COc1cccc(CN(C)C(=O)c2ccc(C)c(S(=O)(=O)N3CCCCC3)c2)c1 | -7% | 0% | -1%
O=C(c1ccc(Cl)cc1)N1CCN(S(=O)(=O)/C=C/c2ccccc2)CC1 | 12% | 1% | ?
CC1(NC(=O)CC(c2ccccc2)(c2ccccc2)c2ccccc2)CCN(Cc2ccc(-c3ccccc3)cc2)C1=O (configuration not stated) | 0% | 0% | -5%
O=C(OCC(=O)N1CCCC1)c1cc2c(cc1[N+](=O)[O-])OCCO2 | -2% | -5% | -1%
CCN1CCN(CCCNC(=O)CCc2nc(-c3ccc(OC)cc3)no2)CC1 | 9% | -6% | 11%
N#Cc1cccc(S(=O)(=O)NCC(=O)OCC(=O)NCc2ccccc2)c1 | -2% | -10% | -1%
CN(C(=O)c1ccccc1C(=O)OCC(=O)Nc1ccccc1)c1ccccc1 | 4% | 3% | -17%
O=c1[nH]c(=S)[nH]c(O)c1N=Nc1ccc(OC(F)F)cc1 | 6% | -5% | 38%[activator]
O=C(Cn1cc(C(F)(F)F)ccc1=O)N1CCc2ccccc2C1 | 2% | 0% | -8%
O=C(C[C@H]1C[C@H](C(=O)N2CCCCC2)[C@@]2(CCc3ccccc3)c3[nH]c4cc(-c5ccco5)ccc4c3CCN2C1=O)NCc1cccc(C(F)(F)F)c1 | 5% | 9% | -7%
COc1cc2sc(-c3ccc(S(C)(=O)=O)cc3)c(C(=O)NCc3ccc(C)o3)c2cc1OC | 10% | -4% | -24%
COc1cc2c(cc1OC)[C@@H](NC(=O)CCc1ccccc1)[C@H](OCc1ccccc1)C2 | -6% | 7% | -12%
C[C@H](CO)N1C[C@H](C)[C@@H](CN(C)C(=O)Nc2ccc(C(F)(F)F)cc2)Oc2c(NC(=O)Nc3ccc(C(F)(F)F)cc3)cccc2C1=O | -3% | 1% | ?
COC(=O)C1=C(c2c(C)noc2C)C[C@@H]2CC[C@H]1N2C(=O)NCc1ccc(C(F)(F)F)cc1 | 4% | -6% | -16%
CC[N+](CC)(CCCCS(=O)(=O)[O-])CCNP1(=O)C=C(c2ccccc2)OC(c2ccccc2)=C1 | -15% | -1% | 3%
O=C(COC(=O)C1CC(=O)N(Cc2ccccc2)C1)Nc1cccc([N+](=O)[O-])c1 (configuration not stated) | 3% | 3% | 1%
CC(C)(C)OC(=O)NCc1ccc(NC(=O)c2nc[nH]c2C(=O)NCCN(CCNC(=O)c2[nH]cnc2C(=O)Nc2ccc(CNC(=O)OC(C)(C)C)cc2)CCNC(=O)c2[nH]cnc2C(=O)Nc2ccc(CNC(=O)OC(C)(C)C)cc2)cc1 | -7% | 3% | 9%
Cc1cc(C=C2C(=O)c3ccccc3C2=O)c(C)n1-c1cccc(C(=O)O)c1 | 2% | -3% | -17%
CC(C)N(C)S(=O)(=O)c1ccc(NC(=O)C2=COCCO2)cc1 | 6% | 2% | 27%

Reformatted with two lines to a compound: part of the list above
Each structure is followed by: RE007 growth inh, SARS PLP yeast, 2A StopGo
CN(C(=O)c1ccccc1C(=O)OCC(=O)Nc1ccccc1)c1ccccc1
  4%, 3%, -17%
CCN1CCN(CCCNC(=O)CCc2nc(-c3ccc(OC)cc3)no2)CC1
  9%, -6%, 11%

(more compounds)
SMILES | RE007 growth inh | SARS PLP yeast | 2A StopGo
CCN1C(=O)[C@H]2[C@@H](c3ccc(C)cc3)N3C(=O)N(c4cccc(Cl)c4)C(=O)[C@@]3(Cc3ccccc3)[C@H]2C1=O | -4% | 0% | -25%
Cc1ccsc1C(=O)OCC(=O)N(C)C1CCCCC1 | 5% | 4% | -12%
Nc1nc2n(n1)C(=O)CC(c1ccc(Cl)cc1)N2 (configuration not stated) | -23% | 4% | 4%
CSc1cccc(N2CC(C(=O)N3CCN(S(=O)(=O)c4ccccc4Cl)CC3)CC2=O)c1 (configuration not stated) | 12% | -6% | ?
